miR-21 reporter – miR-21 reporter, rising signal | AID 2288 | Potency, µM (titrated, usually from 38.3 µM), inactives show at the highest dose reporter change, positive = more light | 340,000 tested, under 10 active | HeLa miR-21 FLuc reporter, luciferase, 48 h; active = well fitted rising curve with a large enough effect; inconclusive = small, poorly fitted or top-dose-only effect; inactive = no such curve, though single readings can be large or run the other way;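 note: % of control where 0% means no effect; miR-21 action dims this reporter so a rising signal means less miR-21 action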
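Using DMEM plus 10% FBS, HeLa miR-21-FLuc cells are incubated with test compounds (final up to about 40uM) for 48 hours; firefly luciferase signal is then imaged following reagent-mediated lysis.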
Rango-impB inh – Rango-importin beta binding inhibition; Q14974; Rango CFP/YFP FRET sensor + importin beta, 45 min; Potency, µM (doses to about 92.2 µM), for the others: at the highest dose inhibition of complex formation; 0.031% of 340,000 active; active = rising FRET ratio curve, often small or poorly fitted; inconclusive = mostly compound fluorescence or quenching in the first reads; inactive = flat curves in all reads;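 note: potency is the fitted concentration of half-maximal effect; 0% = DMSO wells and 100% = buffer wells lacking importin beta; nearly all actives have a fitted effect of over 15% in size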
Target sequence (Q14974 whole entry, looked up): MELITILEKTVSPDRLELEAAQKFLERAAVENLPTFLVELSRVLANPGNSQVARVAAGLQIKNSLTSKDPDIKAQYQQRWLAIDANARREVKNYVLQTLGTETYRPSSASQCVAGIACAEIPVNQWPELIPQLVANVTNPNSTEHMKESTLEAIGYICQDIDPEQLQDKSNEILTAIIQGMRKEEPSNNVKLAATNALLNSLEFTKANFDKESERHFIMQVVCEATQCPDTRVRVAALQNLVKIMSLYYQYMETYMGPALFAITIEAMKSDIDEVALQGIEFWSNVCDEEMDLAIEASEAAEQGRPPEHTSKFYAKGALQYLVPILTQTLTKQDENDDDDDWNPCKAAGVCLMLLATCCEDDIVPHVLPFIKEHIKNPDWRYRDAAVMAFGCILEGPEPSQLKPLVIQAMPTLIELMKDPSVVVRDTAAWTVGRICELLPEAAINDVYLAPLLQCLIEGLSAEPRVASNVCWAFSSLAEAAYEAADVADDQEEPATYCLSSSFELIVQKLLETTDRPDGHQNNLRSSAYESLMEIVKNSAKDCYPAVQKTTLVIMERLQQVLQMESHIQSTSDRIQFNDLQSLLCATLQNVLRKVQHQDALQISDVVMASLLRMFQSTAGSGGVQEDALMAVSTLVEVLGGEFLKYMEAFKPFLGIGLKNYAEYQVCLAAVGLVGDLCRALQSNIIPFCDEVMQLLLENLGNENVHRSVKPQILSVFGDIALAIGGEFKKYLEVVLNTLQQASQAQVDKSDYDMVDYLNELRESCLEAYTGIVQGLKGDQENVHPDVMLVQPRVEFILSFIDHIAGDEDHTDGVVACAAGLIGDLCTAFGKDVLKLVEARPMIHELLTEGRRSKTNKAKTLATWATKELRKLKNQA
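Inhibition scored from the CFP 486 nm/YFP 530 nm FRET ratio 45 min after adding 0.125 microM importin beta to 50 nM Rango biosensor preincubated 5 min with compound (room temperature, PBS with DTT, Tween-20, BSA). No-importin wells as positive control.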
GLA inh pH 4.5 – inhibitors of human alpha-galactosidase A at pH 4.5. purified enzyme, 4-MU-alpha-Gal fluorescence, pH 4.5. activity change, negative = inhibition, % at 105 µM. 230,000 tested, under 10 active. AID 1467; inconclusive = small, poorly fitted or top-dose-only inhibition, or a rising curve; inactive = flat fitted curve, though single readings scatter; no compound was filed as active;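 note: 0% = full activity with enzyme and -100% = basal without enzyme; dose as in the result columns while the protocol names 77 µM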
Rango release inh – inhibition of RanGTP-driven Rango-importin beta dissociation | O95149+P62826 | Biochemical FRET Rango-importin beta, RanGTP-induced dissociation | Potency, µM (series often up to 46.1 µM), without a hit: at the top dose activity change, negative = inhibition | 0.071% of 340,000 active; active means falling FRET ratio curve, often poorly fitted, with flat reads before Ran was added; inconclusive means other falling curves, or compound fluorescence or quenching; inactive means flat or rising ratio curve;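 note: potency is the fitted concentration of half-maximal effect; % of control where 0% means no effect; nearly all actives have a fitted effect of over 45% in size; -100% = wells without RanGTP and RCC1; the record marks most hits as doubtful in a second field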
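Quantitative HTS using a FRET biosensor: 0.1 uM Rango, 0.25 uM importin beta, 0.6 uM Ran, 2 mM GTP, 0.2 uM RCC1 final, PBS with DTT, Tween-20 and BSA. Post-read taken 45 min after Ran addition.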
An asterisk follows results filed as active; u = inconclusive; x = no result given; & = joins results of further samples. This is a subset; count on the stated rates, not on these rows.

Start of the data: the first 2 compounds as a preview:
SMILES | miR-21 reporter | Rango-impB inh | GLA inh pH 4.5 | Rango release inh
CCC1CCCCN1CCCNC(=O)CCC(=O)N1CC(C)Oc2ccccc21 (stereo unspecified) | -3% | 2.2% | x | 16%
Cc1cc(CNC(=O)[C@H]2C[C@@H]2[C@H](NP(=O)(c2ccccc2)c2ccccc2)c2ccccc2)nn1C | -8% | -0.4% | 4&-14 | -4%

Results (from the top)
SMILES | miR-21 reporter | Rango-impB inh | GLA inh pH 4.5 | Rango release inh
CCC1CCCCN1CCCNC(=O)CCC(=O)N1CC(C)Oc2ccccc21 (stereo unspecified) | -3% | 2.2% | x | 16%
Cc1cc(CNC(=O)[C@H]2C[C@@H]2[C@H](NP(=O)(c2ccccc2)c2ccccc2)c2ccccc2)nn1C | -8% | -0.4% | 4&-14 | -4%
CCOC(=O)Nc1ccc(S(=O)(=O)Nc2nc(C)cc(C)n2)cc1 | -8% | -0.7% | -17 | 0%
Cc1ccccc1CN(c1ccc(C(=O)N2CCc3ccccc3C2)cc1)S(C)(=O)=O | -2% | -1.0% | 1 | 7%
CCN1CCN(C2CCCCC2NS(=O)(=O)c2ccccc2)CC1 (stereo unspecified) | -3% | 1.5% | x | 18%
CCc1[nH]nc2c1C(C(C)C)C(C#N)=C(N)O2 (stereo unspecified) | -1% | -3.0% | -1 | -9%
COC(=O)[C@H](Cc1ccccc1)NC(=O)C1CCN(C(=O)[C@H](C)NS(=O)(=O)c2ccc(C)cc2)CC1 | 0% | -3.9% | x | 9%
COc1ccccc1-n1c(COc2ccccc2-c2ccccc2)nnc1SCC(=O)c1c(N)n(C)c(=O)n(C)c1=O | -1% | 0.9% | 7 | -5%
O=C(Nc1ccc(Cl)cc1)NC1CCCC1Cc1ccco1 (stereo unspecified) | 0% | -0.1% | -13 | -8%
CN(C)Cc1c(O)ccc2c(=O)c(-c3ccc(Cl)cc3)coc12 | -18% | -1.9% | x | -7%
CN(C(=O)C1CCCO1)c1nnc(-c2cnccn2)s1 (stereo unspecified) | -9% | 4.5% | 0 | -1%
O=C(Cn1c(=O)oc2ccccc21)Nc1nnc(N2CCCCCC2)s1 | -1% | 2.2% | -4 | 0%
O=C(CSc1nnc(-c2ccncc2)o1)Nc1cc(Cl)ccc1C(=O)O | x | 0.2% | x | -1%
CCOC(=O)[C@@H]1[C@H]2COc3cc(OC)ccc3[C@H]2N2C(=O)N(c3ccc(C(F)(F)F)cc3)C(=O)[C@]12C | x | 1.4% | x | 16%
c1cc2c3c(cccc3c1)NC1(CCCCC1)N2 | 2% | -4.2% | -8 | -14%
CCN1C(=O)[C@H]2[C@@H](c3ccc(-c4cccc(Cl)c4)c(OC)c3)N[C@@](C)(C(=O)OC)[C@H]2C1=O | x | -0.2% | x | -5%
O=C(CCl)Nc1ccc(S(=O)(=O)Nc2nccs2)cc1 | 10% | -2.7% | x | 0%
COC(=O)CCc1c(C)nn(-c2ccccc2)c1C | -37% | 3.2% | 1 | -3%
O=C(NCCc1ccc(Cl)cc1)c1cc(S(=O)(=O)N2CCCCC2)c[nH]1 | 16% | 2.7% | x | 36%
C=CCn1c(N(C)C)nc2c1c(=O)[nH]c(=O)n2C | -1% | 1.4% | 3 | 1%
CCn1c(NC(=S)Nc2ccccc2)nc2ccccc21 | -32% | 1.5% | -13 | 0%
CC(c1ccc(C(C)(C)C)cc1)S(=O)CC(O)CO (stereo unspecified) | 7% | 5.4% | -2 | -7%
COC(=O)CN1C(c2cccc(Cl)c2)=Nc2ccc(Cl)cc2C1c1ccccc1 (stereo unspecified) | -1% | -0.2% | u | 3%
COCCn1c(SCC(=O)Nc2ncc(C)s2)nc2sc3c(c2c1=O)CCC3 | -11% | x | -6 | x
CC(C)(C#CC(O)(c1ccccc1)c1ccccc1)N1CCCC1 | -1% | 0.5% | -5 | -8%
O=C(Cc1ccccc1)N/N=C/c1ccccn1 | x | -5.1% | x | -8%
CCOc1ccc(C2/C(=C(/O)c3ccc(F)cc3)C(=O)C(=O)N2CCCN(C)C)cc1 (stereo unspecified) | -8% | 2.9% | -6 | 0%
CC(Sc1ccc(S(=O)(=O)N2CCOCC2)cc1[N+](=O)[O-])C(=O)O (stereo unspecified) | 0% | -3.3% | -15 | 22%
CCn1c(=S)sc2c(=O)n(CC(=O)Nc3ccc(OC)c(Cl)c3)c(C)nc21 | 4% | -0.6% | x | -9%
NC(=O)c1ccc(C(F)(F)F)n(Cc2cccc(Cl)c2)c1=O | -1% | -0.3% | -10 | -12%
Cc1ccc(NC(=O)Cn2nc(C)c3ccccc3c2=O)c(C)c1 | 0% | 1.2% | -2 | -21%
O=C(Nc1ccc(Cl)c(S(=O)(=O)Nc2ccccc2Cl)c1)c1cccs1 | -1% | -2.3% | -5 | -1%
CCN1CCN(c2c(Cl)cccc2NC(=O)c2ccco2)CC1 | -21% | -0.4% | 0 | 6%
CCOC(=O)c1nnn(-c2nonc2N)c1-c1ccc(Cl)cc1 | -5% | 0.4% | -2 | -9%
COc1cccc(/C=N/n2c(SC)nnc2-c2ccccc2)c1OC | -2% | 0.0% | -3 | 1%
COc1ccc(NC(=O)Cc2nnc(SCC(=O)Nc3cc(C)ccc3OC)n2C)cc1 | 0% | -2.0% | 4 | u
Cc1cc(NC(=O)CSc2nnc(COc3cccc(C)c3C)n2C)no1 | 1% | 1.4% | -1 | 10%
CCOC(=O)c1c2ccc(OCC(=O)N/N=C/c3ccc(C)cc3)cc2n2ccccc12 | -10% | u | 1 | u
CCOC(=O)c1csc(NC(=O)c2ccc(S(=O)(=O)N(CC)CC)cc2)n1 | 8% | -0.4% | 4 | 1%
CCOc1ccc(C(=O)OC(C)CN2CCCCC2)cc1 (stereo unspecified) | -7% | -0.3% | x | -8%
Cc1cc(-c2nnc(SCC(=O)Nc3ccc(C(F)(F)F)cc3)n2C)no1 | 10% | -2.9% | 0 | 27%
O=C(NCCSc1c[nH]c2ccccc12)c1c(F)cccc1F | 0% | 0.7% | 3 | 0%
Cc1[nH]n(C)c(=O)c1[N+](=O)[O-] | -4% | -2.1% | 1 | -12%
CCN(CC)S(=O)(=O)c1ccc(N2CCOCC2)c(NC(=O)c2ccc(N3CCCC3=O)cc2)c1 | x | 1.0% | x | -16%
CC1(C)C/C(=C(/C#N)C(N)=O)CCO1 | -4% | 0.9% | -1 | 1%
CCN(CC(=O)Nc1c(F)cccc1F)C(=O)c1ccc(Sc2nncn2C)c([N+](=O)[O-])c1 | x | 9.6% | x | u
C/C(=N\NC(=O)c1cccnc1)c1ccc(-c2ccccc2)cc1 | -11% | 1.2% | -6 | -1%
Cc1ccc(-c2nn(-c3ccc(F)cc3)cc2C(=O)NCCCN2CCCC2=O)cc1 | x | 2.9% | x | -5%
COCCCNC(=O)c1cc(=O)n(Cc2ccc(Cl)cc2)c2ccccc12 | 2% | 3.8% | -5 | -16%
O=c1c2[nH]c3ccc(F)cc3c2ncn1C1CCCCC1 | -24% | 0.5% | 3 | -8%
C[C@@H]1NC(=O)/C(=C\c2ccccc2Br)NC1=O | -6% | -0.2% | x | -6%
Nc1nn(-c2ccccc2)c(N)c1N=Nc1ccc2c(c1)OCO2 | -1% | 0.7% | -3 | -14%
O=S(=O)(CCNC1CC1)NC1CCCCC1 | x | -0.8% | x | 12%
O=C(Nc1ccccc1C(=O)O)c1cccc(NC(=O)c2ccc(Br)o2)c1 | -4% | -2.6% | 6 | 2%
Oc1ccccc1C1N=C(c2ccccc2)NC(c2ccccc2)=N1 | 5% | -1.9% | -3 | 28%
CCN(CC)C(=O)c1nc[nH]c1C(=O)N1CCN(C(=O)OC(C)(C)C)CC1 | x | -2.6% | x | 11%
N#Cc1c(NC(=O)CSc2nc3ccccc3s2)sc2c1CCCC2 | 1% | -0.3% | -6 | -22%
Cc1cccc(Nc2ccc(S(=O)(=O)N3CCOCC3)cc2[N+](=O)[O-])c1 | x | -6.1% | x | 29%
Cc1ccccc1C(=O)NC1CCS(=O)(=O)C1 (stereo unspecified) | 0% | 0.1% | 6 | 1%
CCCCNC(=O)Nc1c(C)cc(SC#N)cc1C | 0% | -1.0% | -11 | -13%

One compound at a time, from the list above. Order of values: miR-21 reporter | Rango-impB inh | GLA inh pH 4.5 | Rango release inh
Profile of CCOC(=O)[C@@H]1[C@H]2COc3cc(OC)ccc3[C@H]2N2C(=O)N(c3ccc(C(F)(F)F)cc3)C(=O)[C@]12C : x | 1.4% | x | 16%
Profile of C=CCn1c(N(C)C)nc2c1c(=O)[nH]c(=O)n2C : -1% | 1.4% | 3 | 1%

The list goes on:
SMILES | miR-21 reporter | Rango-impB inh | GLA inh pH 4.5 | Rango release inh
C=CCn1cc(C(=O)NCC2CCCO2)c(=O)c2cc(S(=O)(=O)N3CCCCCC3)ccc21 (stereo unspecified) | -3% | -3.7% | -1 | 17%
COC(CN(C)C(=O)C1CCCN(S(=O)(=O)c2ccc3c(c2)oc(=O)n3C)C1)OC (stereo unspecified) | 0% | 0.6% | x | -14%
CC(=O)Nc1ccc(NC(=O)c2cc(-n3cnnc3)ccc2Cl)cc1 | 3% | -0.4% | -7 | -11%
COc1ccc(C2=NC(C(F)(F)F)(C(F)(F)F)c3c(n(C)c(=O)n(C)c3=O)N2)cc1 | 1% | u | -7 | -9%
CC(=O)c1ccc(NC(=O)c2ccn[nH]2)cc1 | -26% | -2.7% | 9 | 36%
O=C(Cn1cnc(S(=O)(=O)N2CCCC2)c1)Nc1cccc(Br)c1 | -4%&-2% | 1.2% | x | 0%
CC(C)Nc1nc(NC(C)C)nc(N(C)n2cnnc2)n1 | -13% | 1.4% | -4 | -1%
CC(Sc1nnc(CN2CCCC2)n1Cc1ccccc1)C(=O)Nc1ccccc1 (stereo unspecified) | x | 2.0% | x | -11%
Nc1nnc(CCCCc2cccs2)o1 | -10% | 0.8% | 6 | 10%
COc1ccc(C(=O)Nc2ccc(O)c3ccccc23)cc1OC | x | 2.9% | x | u
O=C(CCNc1n[nH]c(=O)[nH]c1=O)N/N=C/c1ccc(Cl)cc1 | 1% | -0.7% | -3 | 23%
Cc1ccc(-c2cc(C(=O)N3CCCc4ccccc43)no2)cc1 | -43% | 0.3% | 6 | -15%
CC(=O)N1N=C(c2ccc3ccccc3c2)OC12CCCC2 | -4% | -0.7% | -1 | 0%
Cc1cc(NS(=O)(=O)c2ccc(NC(=O)COc3ccc(Cl)cc3Cl)cc2)no1 | -15% | 0.5% | x | -1%
CC/C(=N\NC(=S)Nc1cccc(C)c1)c1ccccc1 | -24% | 4.2% | 8 | 13%
COc1cc(CCCN2C(=S)NC[C@@H]2Cc2ccccc2)cc(OC)c1OC | 10% | 1.5% | -13 | 33%
Cc1[nH]c2ccc(OCc3ccccc3)cc2c1CCN1C(=O)OC(C)(C)C1(C)O (stereo unspecified) | -12% | 3.0% | -4 | -7%
Cc1ccc(S(=O)(=O)Nc2ccc3ncccc3c2)cc1 | -26% | 0.6% | -3 | -4%
CCN(CC)S(=O)(=O)c1ccc(/C=C/C(=O)OCC(=O)Nc2ccc(C(N)=O)cc2)cc1 | -3% | -5.9% | 6 | 11%
Cc1noc(C)c1C(=O)OCC(=O)c1cc(C)n(Cc2ccccc2Cl)c1C | -22% | -0.4% | -4 | 11%
O=C(NNC(=O)c1ccc2ccccc2c1O)Nc1ccc(F)cc1 | -4% | -1.9% | x | 4%
Cc1nc2ccccn2c(=O)c1NC(=O)c1cccs1 | x | -2.6% | x | -1%
Cc1ccnc(NS(=O)(=O)c2ccc(NC(=O)c3snnc3C)cc2)n1 | 0% | 0.4% | x | 1%
O=C(Nc1ccc(NS(=O)(=O)c2ccccc2)c(Cl)c1)c1ccccc1 | x | 0.7% | x | -2%
C=CC(=O)NCCCc1cc(C(C)(C)C)c(O)c(C(C)(C)C)c1 | -1% | u | -13 | 3%
Cc1c(C#N)c(N)nc2c3c(sc12)NC(=O)CC3c1ccccc1 (stereo unspecified) | -10% | -2.9% | u | u
N#C/C(=C\c1cc2c(cc1Br)OCO2)C(=O)NCC1CCCO1 (stereo unspecified) | -5% | -2.8% | -3 | 2%
CCOc1ccc(CONS(=O)(=O)c2ccc(NC(C)=O)cc2)cc1Cl | 1% | u | -7 | -5%
CC1(C)C[C@@H]2C[C@@](C)(CN2C(=O)c2ccccc2)C1 | 3% | 3.1% | 2 | 11%
CC(NC(=O)Cn1c(NCCO)nc2ccccc21)C1CC2CCC1C2 (stereo unspecified) | 2% | 1.4% | 8 | 17%

Screens: PubChem, National Center for Advancing Translational Sciences (NCATS)
